High-throughput results (PubChem)
Six1-Eya2 inh: qHTS Assay for Inhibitors of the Six1/Eya2 Interaction | AlphaScreen GST-Six1/His-Eya2 binding, biochemical; stronger effect = lower value; control for the full effect not named in the record | Homeobox protein SIX1 (Homo sapiens) + Protein phosphatase EYA2 (Homo sapiens), … | hit rate 0.56% among 360,000 | activity change, % (no concentration beside the values) | AID 651725, 2012; in the data active = activity change below about -65%; inconclusive = about -30% to -65%; inactive = above about -30%; also: % is scaled to controls: 0 for no effect and ±100 for the full control effect; compound concentration not given in the record
Target sequence (O00167 whole entry, looked up): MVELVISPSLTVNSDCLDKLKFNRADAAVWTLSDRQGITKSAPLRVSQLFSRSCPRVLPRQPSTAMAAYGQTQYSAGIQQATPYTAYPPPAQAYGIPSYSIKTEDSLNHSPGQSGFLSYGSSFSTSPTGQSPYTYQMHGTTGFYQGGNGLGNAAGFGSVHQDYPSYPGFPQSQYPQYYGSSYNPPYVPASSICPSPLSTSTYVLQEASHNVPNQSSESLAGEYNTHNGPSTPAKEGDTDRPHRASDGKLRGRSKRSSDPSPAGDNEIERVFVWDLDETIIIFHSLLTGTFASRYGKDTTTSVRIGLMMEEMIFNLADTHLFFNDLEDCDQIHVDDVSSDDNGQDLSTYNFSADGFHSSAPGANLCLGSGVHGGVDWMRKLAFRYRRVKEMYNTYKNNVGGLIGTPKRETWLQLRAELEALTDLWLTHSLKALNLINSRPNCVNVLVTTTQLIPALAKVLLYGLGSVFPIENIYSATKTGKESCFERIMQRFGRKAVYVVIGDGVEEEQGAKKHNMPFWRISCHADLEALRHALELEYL
Target sequence (Q15475 whole entry, looked up): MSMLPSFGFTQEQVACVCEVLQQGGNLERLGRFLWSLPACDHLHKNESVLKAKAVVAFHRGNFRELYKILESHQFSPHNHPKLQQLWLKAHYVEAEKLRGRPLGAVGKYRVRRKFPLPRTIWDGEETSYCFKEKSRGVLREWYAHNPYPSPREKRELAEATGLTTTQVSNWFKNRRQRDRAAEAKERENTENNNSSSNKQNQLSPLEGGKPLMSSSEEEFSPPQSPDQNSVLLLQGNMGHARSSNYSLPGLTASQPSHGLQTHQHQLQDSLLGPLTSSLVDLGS
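AlphaScreen luminescence read after one hour at 37 °C in darkness. Pin-transferred compounds met GST-Six1 and His-Eya2 protein (5X stock 250 nM/500 nM) plus glutathione donor and Ni-chelate acceptor beads (5X, 50 ug/mL).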
PINK1 modulator: A Quantitative High throughput Screen to Identify Chemical Modulators of PINK1 Expression; PINK1 immunofluorescence, high-content cytometry, 24 h; Potency, µM (highest dose often 76.6 µM), inactives show at the highest dose activation (PINK1 increase), actives largely listed as activators; hit rate 0.2% among 410,000; active = well fitted activation curve with a large enough effect; inconclusive = small, poorly fitted or top-dose-only effect; inactive = flat fitted curve, though single readings scatter; cell line not stated here;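 also: potency is read from the fitted curve at half-maximal effect; % of control where 0% means no effect; nearly all actives have a fitted effect of over 65% in size; a mitochondrial uncoupler was the plate control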
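Stable cell line, 250 cells/well, 12 h attachment; compounds pinned at 5 concentrations, 24 h; CCCP control. Fixed with nuclear dye, primary antibodies 12 h at 10 degrees C, secondary plus cell stain; laser-scanning cytometer read.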
TRPML1 agonist: qHTS for Agonists of the Human Mucolipin Transient Receptor Potential 1 (TRPML1) | TRPML1-expressing cells, Ca2+ dye fluorescence, FDSS; host cell line not named in the record; reference of the full effect not given here | activation, % (test concentration not listed) | AID 624414, 2012 | Mucolipin-1 (Homo sapiens), Q9GZU1 | hit rate 0.12% among 410,000; in the data active = activation above about 50%; inconclusive = about 30% to 50%; inactive = below about 30%; also: 0% is about no effect; the text of the record puts the active cut at 80%
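Tetracycline-induced TRPML1-DL cells are seeded and incubated overnight before loading with a no-wash Ca2+ dye and quencher. Agonist activity is taken from the 110 s fluorescence read following compound pin-transfer on an FDSS, before EC80 54-4 challenge.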
D2 potentiator: Beta-Arrestin HTS for Positive Allosteric Modulators of the Human D2 Dopamine Receptor: Potentiators; potentiation, % (concentration not given with the values); DiscoveRx D2 beta-arrestin cells, luminescence, 90 min; 100% = 57 uM dopamine signal; hit rate 0.23% among 360,000; active = potentiation of 50% or more; inconclusive = 30% to 50%; inactive = 30% or less;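 also: compound concentration not given in the record; tested on top of an EC20 dose of dopamine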
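PathHunter beta-arrestin assay in DiscoveRx D2 cells. Compounds were added with an EC20 of dopamine (50 nM final) for 90 min at 37 deg C. Luminescence was read 1 h after detection reagent, with 57 uM dopamine as the EC100 control.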
D2 ag: Beta-Arrestin HTS for Positive Allosteric Modulators of the Human D2 Dopamine Receptor: Agonists. DiscoveRx PathHunter D2 beta-arrestin, luminescence, 90 min; 100% = 57 uM dopamine signal. D(2) dopamine receptor (Homo sapiens), P14416. hit rate 0.084% among 360,000. activation, % (test concentration not listed). AID 624465, 2012; in the data active = activation above about 40%; inconclusive = about 15% to 40%; inactive = below about 15%; also: compound concentration not given in the record; the text of the record calls up to 30% inactive
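Agonist mode: compounds alone added to overnight-plated D2 PathHunter cells for 90 min at 37 C, with 57 uM final dopamine (EC100) defining full response. Beta-arrestin recruitment detected by chemiluminescent reagent, read after 1 h at ambient temperature.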
TRPML1 inh: qHTS for Inhibitors of the Human Mucolipin Transient Receptor Potential 1 (TRPML1) | Mucolipin-1 (Homo sapiens), Q9GZU1 | TRPML1-inducible cells, Ca2+ dye fluorescence, FDSS; stronger effect = lower value; inhibition of EC80 agonist-evoked calcium signal | activity change, negative = inhibition, % (no concentration beside the values) | hit rate 0.02% among 390,000 | AID 624415, 2012; in the data active means activity change below about -50%; inconclusive means about -30% to -50%; inactive means above about -30%;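 also: stimulus is agonist 54-4 at its EC80 concentration; % is scaled to controls: 0 for no effect and ±100 for the full control effect; compound concentration not given in the record; the text of the record puts the active cut at -80%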
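Tet-induced TRPML1-DL cells loaded with Ca8 no-wash calcium dye were read kinetically on FDSS. Compound addition was followed by EC80 agonist 54-4 (4 uM final); inhibition was read over 110 s.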
Starred values were filed as active, the others as inactive; ? = inconclusive; nt = not tested or not shown; & = joins results of further samples; [ ] = another dose, or the depositor's remark.

No. | mol | Six1-Eya2 inh | PINK1 modulator | TRPML1 agonist | D2 potentiator | D2 ag | TRPML1 inh
1 | COc1ccc(NC(=O)CN2C(=O)NC(C)(c3ccccc3)C2=O)cc1Cl (stereo not given) | 7.6 | -0.9% | 1.4 | -1.9 | -5.6 | 6.5
2 | Cc1ccc(Cl)cc1NC(=O)N[C@@H](C)C(=O)O | 8.0 | 0.6% | 0.7 | -5.0 | -5.2 | 7.2
3 | CC(=O)c1ccc(OCc2cc(C(=O)N(C)C(C)c3nccs3)no2)cc1 (stereo not given) | 0.4 | 0.2% | 0.4 | -2.2 | 5.0 | -7.9
4 | O=C(c1cccc(C(F)(F)F)c1)N1CCN(c2cc(=O)[nH]nc2-c2ccccc2)CC1 | 7.9 | -0.3% | 0.5 | -27.1 | -2.5 | 23.5
5 | COc1ccc(CCNC(=O)CCn2c(=O)c3ccccc3n(Cc3ccccc3F)c2=O)cc1OC | nt | -0.4% | 4.9 | nt | nt | -4.6
6 | Cn1nc(C(=O)NCc2ccccc2Cl)c2c1-c1ccccc1S(=O)(=O)C2 | 0.0 | 0.9%&-0.7% | -0.6&2.0 | -5.2 | -1.6 | 4.1&2.1
7 | Cc1ccccc1Nc1sc(C(=O)c2ccccc2)c(N)c1S(C)(=O)=O | nt | 5.0% | 0.3 | nt | nt | -3.6
8 | COC(=O)c1ccc(NC(=S)NCCC2=CCCCC2)cc1 | 0.7 | 14.0%[38.3 µM] | 0.6 | -18.6 | -0.6 | 11.7
9 | COc1ccc(S(=O)(=O)N2CCN(Cc3nc4ccc(C)cc4o3)CC2)cc1OC | nt | -1.1% | 0.5 | nt | nt | 19.2
10 | CN(CCC#N)C(=S)Nc1ccc(Oc2ccccc2)cc1 | 1.7 | 2.0% | 0.7 | -9.2 | -2.6 | 2.8
11 | CCn1c(CNC(=O)C23CC4CC(CC(C4)C2)C3)nnc1SCC(=O)Nc1ccc(OC)cc1 | nt | 0.6% | 0.8 | nt | nt | -2.5
12 | COC(=O)C(C(=O)NCC1CCCO1)C1CCCC1 (stereo not given) | -2.6 | -0.5% | 0.6 | 12.7 | 0.0 | 31.9
13 | COc1ccc(C(=O)Nc2cc(OC)c(NC(=O)Nc3ccccc3)cc2OC)cc1 | ? | 1.6% | 1.7 | -5.2 | 1.7 | 2.4
14 | O=C(C1=C(O)C(=O)N(Cc2ccccc2)C1c1cccnc1)c1ccco1 (stereo not given) | -3.4 | 0.6% | 1.1 | 3.2 | -1.7 | -5.5
15 | COc1ccc(S(=O)(=O)NCCc2c[nH]c3ccc(Cl)cc23)cc1 | -6.8 | 0.4% | 0.4 | -1.2 | -1.3 | 7.3
16 | COc1ccc(CCN2C(=O)C3C4CC(C5C(C(=O)O)=NOC45)C3C2=O)cc1OC (stereo not given) | 0.8 | -0.7% | 1.0 | -7.6 | -2.1 | -10.9
17 | CC(=O)NCC(=O)OCC(=O)c1ccc(Cl)cc1 | 1.0 | 0.5% | 0.5 | -16.0 | -3.1 | 21.6
18 | COC(=O)c1ccc(-c2noc(CN(C)CC3CCCCO3)n2)cc1 (stereo not given) | 11.0 | 2.4% | 0.4 | -3.0 | 2.1 | -2.8
19 | CN(C)/C=N/c1nc(Sc2ccc(C(F)(F)F)cc2[N+](=O)[O-])n[nH]1 | 15.9 | 1.6% | 0.6 | 21.0 | 7.4 | -3.7
20 | CCOC(=O)c1c(S(=O)(=O)N2CCCC(C)C2)c(C)n(C)c1C (stereo not given) | -1.9 | 0.4% | -0.4 | -30.8 | -1.7 | 42.0
21 | CC(=O)c1c(N2CCN(C)CC2)nc(=S)n(-c2cc(C)ccc2C)c1C | 1.1 | 3.9% | -0.3 | -4.5 | -3.9 | -3.4
22 | CC(NC(=O)CN1C(=O)NC(c2ccccc2)(c2ccccc2)C1=O)c1cccs1 (stereo not given) | 3.1 | 1.7% | 0.0 | -0.7 | 5.5 | -7.8
23 | Cc1noc(NC(=O)c2ccccc2C(F)(F)F)c1C#N | 9.9 | 0.7% | 1.2 | -5.6 | 0.0 | 18.6
24 | CCN(CC)C(=O)CSc1nc(-c2ccc(C)cc2)nc2c1Cc1c(CO)cnc(C)c1O2 | nt | -2.0% | 0.8 | nt | nt | -19.1
25 | O=C(O)CC(=O)Nc1cc(Cl)ccc1O | 3.7 | -0.6%[38.3 µM] | 0.6 | -0.1 | 2.3 | -9.4
26 | COc1ccc(C2C=C(C)Nc3nc4ccccc4n32)cc1 (stereo not given) | -8.8 | 4.1% | 2.2 | -1.3 | -0.8 | -13.9
27 | CCOCCCNC(=O)C1(O)c2ccccc2NC(=O)N1c1ccc(Cl)c(Cl)c1 (stereo not given) | 3.3 | 0.2% | 1.2 | 4.7 | 5.0 | 4.5
28 | COc1ccc(-c2cc(C(=O)N(C)Cc3ccc(F)cc3)c3ccccc3n2)cc1OC | -11.7 | -1.5% | -0.4 | 3.2 | 7.2 | -7.8
29 | COc1ccc(NS(=O)(=O)c2ccc3c(c2)CCCN3C(C)=O)cc1 | -9.7 | 0.1% | -0.9 | -5.5 | 1.1 | 6.5
30 | COc1ccccc1NC(=O)Oc1ccc(C(C)=O)cc1 | 0.4 | -1.2% | -0.8 | -18.0 | -4.1 | -6.9
31 | c1ccc(CCNc2ccc3ncc(-c4cccc5ccccc45)n3n2)nc1 | 1.0 | 1.2% | -0.2 | -5.5 | 1.8 | nt
32 | COc1cccc(COC(=O)c2cc(S(=O)(=O)N3CCCCC3)ccc2N2CCOCC2)c1OC | 4.7 | 6.3% | 0.4 | -2.4 | -4.0 | 14.5
33 | Cc1csc(=O)n1CC(=O)OCC(=O)Nc1ccc(F)c(F)c1F | 8.1 | -1.1% | -0.4 | -12.5 | -2.3 | 2.6
34 | C[C@@H](C(=O)Nc1ccc2ccccc2c1)[C@@H]1C[C@@]1(C)[C@@H](NC(=O)OCc1ccccc1)c1ccccc1 | -0.3 | -1.0% | 0.0 | -33.9 | 1.4 | -9.6
35 | COc1ccc(S(=O)(=O)N2CCCCCC2)cc1C(=O)N(C)Cc1ccc(C(C)(C)C)cc1 | -6.1 | ? | 2.2 | -24.4 | -3.3 | 62.0
36 | CCN1CCN(c2ccc(NC(=O)c3cccc(N4CCCC4=O)c3)cc2)CC1 | 4.7 | -0.2% | -0.5 | -3.6 | 0.8 | -7.9
37 | CC1=C(C#N)C(c2ccccc2O)C(C#N)=C(C)N1 | 5.5 | 4.2% | -0.2 | -13.0 | -1.0 | 35.9
38 | CCCCCSc1nnc(-c2ccccc2N)c(=O)[nH]1 | -6.6 | -0.3% | 0.0 | 5.9 | 2.8 | -8.7
39 | CC1C(=O)C(C)C(c2ccc(Cl)cc2)NC1c1ccc(Cl)cc1 (stereo not given) | -5.3 | 20.5% | 2.1 | -0.6 | 0.5 | -3.8
40 | O=C(Nc1ccc(N2CCOCC2)cc1)c1cc2c(s1)CCCCC2 | -14.2 | 0.8% | 1.3 | -11.9 | -5.4 | 41.4
41 | C[C@@H]1O[C@@H](OC[C@H]2O[C@@H](Oc3c(-c4ccc(O)cc4)oc4cc(O)cc(O)c4c3=O)[C@H](O)[C@@H](O)[C@@H]2O)[C@H](O)[C@H](O)[C@H]1O | -0.7 | -1.1% | -0.1 | -2.6 | 0.9 | 15.1
42 | COc1ccc(-c2nnc(SCCOc3cccc(C)c3)n2N)cc1 | -9.1 | 2.2% | -0.3 | 7.4 | -1.8 | -13.8
43 | CC(C)C(=O)Nc1cc(S(=O)(=O)Nc2ccc(Cl)cc2)ccc1Cl | -0.8 | 3.5% | 2.9 | -4.1 | -3.5 | 27.9
44 | Cc1ccc(NC(=O)c2cc(S(=O)(=O)NCCC3=CCCCC3)ccc2F)cc1 | 4.7 | 7.0% | 2.2 | -6.5 | 1.8 | -9.7
45 | CC(NC(=O)c1cc(-c2ccccn2)nc2ccc(Cl)cc12)C1CCCO1 (stereo not given) | -6.1 | -1.8% | -0.4 | -12.4 | -4.2 | 2.9
46 | Cc1c(C(=O)NCc2ccccc2C(F)(F)F)sc(=O)n1Cc1ccccc1C#N | -6.7 | 2.8% | -0.4 | 0.5 | 6.2 | nt
47 | Cc1cc(C(F)F)n2nc(C(=O)Nc3ccc(S(=O)(=O)NC45CC6CC(CC(C6)C4)C5)cc3)nc2n1 | -8.0 | 3.1%[38.3 µM] | 0.1 | -5.8 | -1.1 | 4.1
48 | Cc1ccc(OCCNc2ccc(S(=O)(=O)N3CCCC3)cn2)cc1 | 3.6 | -2.6% | 3.2 | -68.9 | -0.4 | 10.0
49 | COc1ccc(NC(=O)COc2ccc(N(C)S(=O)(=O)c3ccc(Cl)cc3)cc2)cc1 | -4.8 | -0.6% | 2.1 | -0.5 | 9.3 | 16.3
50 | CSc1ncnc2c1ncn2CCCN1CCN(Cc2cccc3ccccc23)CC1 | -9.9 | 2.7% | nt | nt | 0.9 | nt

From compound 44 to 46, copied from above:
No. | mol | Six1-Eya2 inh | PINK1 modulator | TRPML1 agonist | D2 potentiator | D2 ag | TRPML1 inh
44 | Cc1ccc(NC(=O)c2cc(S(=O)(=O)NCCC3=CCCCC3)ccc2F)cc1 | 4.7 | 7.0% | 2.2 | -6.5 | 1.8 | -9.7
45 | CC(NC(=O)c1cc(-c2ccccn2)nc2ccc(Cl)cc12)C1CCCO1 (stereo not given) | -6.1 | -1.8% | -0.4 | -12.4 | -4.2 | 2.9
46 | Cc1c(C(=O)NCc2ccccc2C(F)(F)F)sc(=O)n1Cc1ccccc1C#N | -6.7 | 2.8% | -0.4 | 0.5 | 6.2 | nt

The listing continues.
No. | mol | Six1-Eya2 inh | PINK1 modulator | TRPML1 agonist | D2 potentiator | D2 ag | TRPML1 inh
51 | Cc1ccc(C[n+]2ccccc2)cc1 | 0.4 | 1.9% | -0.5 | -5.1 | -1.1 | -15.5
52 | COC(=O)N/N=C/c1cc(Br)ccc1O | -8.9 | 0.7% | -0.6 | -2.5 | 1.5 | 23.6
53 | Cc1cccc(-c2nnc(SCC(=O)Nc3nc4c(s3)CCCC4)n2C)c1 | -1.9 | -2.0% | 5.4 | -5.3 | -1.9 | -13.3
54 | COCCN(C(=O)c1ccc(COc2ccccc2)o1)c1c(N)n(CC(C)C)c(=O)[nH]c1=O | -1.1 | -1.2% | 4.4 | -14.7 | 3.6 | 6.4
55 | COc1ccc(CN(C)C(=O)c2ccncc2)c(OC)c1 | 3.6 | -1.0% | 0.0 | 6.4 | -0.6 | 41.5
56 | Cc1ccc(C(=O)Nc2ccc3oc(-c4ccncc4)nc3c2)c(Cl)c1 | nt | 10.5% | -0.6 | nt | nt | 10.9
